# Screens (PubChem BioAssay)
# H5N1 CPE = MDCK cell protection from H5N1 avian flu; 96,000 tested, 0.07% active; inhibition, % at 50 µM; cytopathic effect, luminescence, 72 h; hits give high values; no value below 0 was filed and about half of the inactive calls have no number; reference of the scale not given here; in the data active means inhibition above about 25%
# The depositor's hits bear a star; i = inactive. This is a subset; rates above refer to the full screens.
SMILES,H5N1 CPE
O=C(c1ccc(COc2ccc(F)cc2)o1)n1cccn1,i
CCCCSc1nc(O)c(C2OC(=O)c3c2ccc(OC)c3OC)c(=O)n1C (configuration not stated),0.5
CC(C)(C)n1nc2c(c1NC(=O)Cc1cccc3ccccc13)CS(=O)C2 (configuration not stated),1.6
Nn1c(SCC(=O)N2CCCCCC2)nnc1-c1ccncc1,0.4
CCCc1cc(NCC2CCCO2)n2c(nc3ccccc32)c1C#N (configuration not stated),2.6
COc1ccc(S(=O)(=O)N2CCc3ccccc3C2)cc1OC,0.7
O=C1c2ccsc2SCCN1Cc1ccc(Cl)cc1,i
Cc1c(C#N)sc2nc(-c3ccccc3)nc(N3CCCC3)c12,1.9
Cc1c(C(=O)OCC(=O)N2CC(=O)Nc3ccccc32)oc2ccccc12,0.1
COc1ccccc1NC(=O)c1ccc(S(=O)(=O)N2CCOCC2)cc1,i
O=S(=O)(c1cccc2nsnc12)N1CCN(C/C=C/c2ccccc2)CC1,1.0
COc1ccc(C)cc1NC(=O)C1CCCN(S(=O)(=O)c2cnc[nH]2)C1 (configuration not stated),0.1
CCc1ccc(-c2nc(CN3CCC(C(=O)NCCN(CC)c4ccccc4)CC3)c(C)o2)cc1,i
O=C(O)c1cc(S(=O)(=O)NCc2ccco2)c(Cl)cc1Cl,0.1
COc1ccc(S(=O)(=O)NCCSC(C)(C)C)cc1,0.9
O=C(Nc1ccc(Br)cc1)c1ccccc1CC[N+](=O)[O-],i
CCOC(=O)N1CCN(C(=O)CCCn2c(=S)[nH]c3ccc(Br)cc3c2=O)CC1,1.2
Cc1ccc(S(=O)(=O)Nc2cc(C(=O)N3CCC4(CC3)OCCO4)ccc2N2CCCCC2)cc1,i
CCOc1ccc(CC(C(N)=O)C(N)=O)cc1CN(C)C,i
CN1CCN(c2ccccc2NC(=O)c2ccc(OCc3ccccc3)cc2)CC1,i
CCN(CC)S(=O)(=O)c1ccc(OC)c(NC(=O)c2cc([N+](=O)[O-])ccc2Cl)c1,0.5
Cc1cccc(NC(=O)C2(C)CC3c4ccccc4C2c2ccccc23)c1 (configuration not stated),i
CC(=O)c1ccc(-n2nnnc2SCC(=O)N2CCc3ccccc3C2)cc1,1.8
O=C(c1cccnc1NCc1ccc(F)cc1)N1CCOCC1,0.8
CCC(=C(c1ccc(OC)cc1)c1ccc(OC)cc1)c1cn(CC(O)CN2CCN(C)CC2)c2ccccc12 (configuration not stated),i
# The list continues:
SMILES,H5N1 CPE
Cc1noc(C)c1CSc1cc(C)c2ccccc2n1,0.1
CCOC(=O)c1nnn(-c2nonc2N)c1-c1ccccc1,0.8
CN(C)CCNc1oc(COc2ccc(Cl)cc2Cl)nc1C#N,i
C=CCn1c(=O)c(C(=O)NCCc2ccccc2)c(O)c2ccccc21,i
CCOC(=O)C1=C(N)OC2=C(C(=O)CCC2)C1c1cccnc1 (configuration not stated),0.3
CCCN(c1ccc(C(C)C)cc1)S(=O)(=O)c1c(C)noc1C,1.9
CC(=O)Nc1ccc(Oc2cc(C#N)c(C#N)cc2N2CCOCC2)cc1,1.5
O=S(=O)(c1ccc(Cl)cc1)N1CCCC1c1nc(-c2ccc(Cl)cc2)no1 (configuration not stated),0.5
O=C(CCCc1nc(-c2ccccc2)no1)Nc1cccnc1,i
COc1ccc(OC)c(NS(=O)(=O)c2ccc3c(c2)CCC(=O)N3)c1,0.2
COc1ccc(-n2c(Cc3cccn3C)nnc2SCC(=O)N2CCC(C)CC2)cc1,i
CCc1ccc(-c2cc(C(F)(F)F)n3nc(C(=O)Nc4cnn(Cc5ccccc5C)c4)cc3n2)s1,i
CCc1nc(N2CCNCC2)c(C#N)c2c1CSC(C)(C)C2,0.7
CCN(CC)C(=O)CN(c1cc2c(cc1OC)oc1ccccc12)S(=O)(=O)c1ccccc1,0.5
CCCCC(O)(C(NC=O)C(=O)OC)C(F)(F)F (configuration not stated),0.5
CN(CCc1ccccn1)Cc1ccc(Cl)cc1Cl,i
CCCOc1ccc(C(CC(=O)O)NS(=O)(=O)c2ccc(NC(C)=O)cc2)cc1 (configuration not stated),0.2
COc1ccc(NC(=O)C2CCN(c3cc(C)nc(-c4ccccc4)n3)CC2)cc1,i
O=C(/C=C/c1ccccc1)NCCSc1ccc(Cl)cc1,i
COc1cccc(-c2csc(N3CCN(C(=S)Nc4ccc(Cl)cc4)CC3)n2)c1,i
CS(=O)(=O)c1nc(-c2ccc(Br)cc2)cc(-c2ccccc2)c1C#N,i
O=C(O)c1ccccc1CSc1ncn[nH]1,i
CC(C(=O)N1CCN(C)CC1)N1C(=O)c2ccccc2C1=O (configuration not stated),0.5
CC1=CC(c2ccccc2)n2nc(NS(=O)(=O)c3ccc(C)cc3)nc2N1 (configuration not stated),0.3
C1=C(CCNCc2ccccc2)CCCC1,i

# In another format: results already given
molecule	H5N1 CPE
CC1=CC(c2ccccc2)n2nc(NS(=O)(=O)c3ccc(C)cc3)nc2N1 (configuration not stated)	0.3
C1=C(CCNCc2ccccc2)CCCC1	i

# Remaining list, next part
SMILES,H5N1 CPE
Cc1c(Cl)cccc1N1CC(C(=O)Nc2nccs2)CC1=O (configuration not stated),i
CC(c1ccccc1)n1cc(C(=O)NCCN2CCOCC2)nn1 (configuration not stated),i
CCOC(=O)C1Cc2cc3c(cc2C1=O)CC(C(=O)OCC)C3=O (configuration not stated),i
CCOC(=O)N1CCC(NC(=O)C2CCN(S(=O)(=O)c3c(C)noc3C)CC2)CC1,i
Cc1cc(C)c2c(=O)[nH]c(SCC(=O)c3ccc(C(C)C)cc3)nc2n1,1.3
Cc1ccc(SC(CC(=O)c2ccc(C)cc2)C(=O)O)cc1 (configuration not stated),0.3
COC(=O)c1cc(S(=O)(=O)N2CCC(C)CC2)ccc1F,0.2
CCN(CCCNC(=O)C1CCN(S(=O)(=O)c2cnc[nH]2)CC1)c1ccccc1,i
CCOC(=O)c1ccc(NC2c3ncccc3C(=O)N2Cc2ccc(F)cc2)cc1 (configuration not stated),3.1
c1ccc2[nH]c(SN3CCOCC3)nc2c1,1.1
CS(=O)(=O)N1CCc2cc(S(=O)(=O)Nc3ccc4c(c3)OCCO4)ccc21,0.5
O=C(O)COc1ccc2c(c1)OCCO2,0.8
CCOc1ccc(OCC)c(NC(=O)C2C3C=CC(O3)C2C(=O)NCc2ccco2)c1 (configuration not stated),i
CCC(C)NC(=O)C(NS(=O)(=O)c1ccc2c(c1)c(=O)n(C)c(=O)n2C)c1ccccc1 (configuration not stated),1.9
O=C(c1ccco1)N1CCN(C(=O)C2CCN(S(=O)(=O)c3cccs3)CC2)CC1,0.3
CCOC(=O)c1nn(-c2ccc(OC)cc2)c(=O)c2c(N)scc12,0.1
CC(=O)N1CN(S(=O)(=O)c2ccc(C)cc2)CC1C (configuration not stated),1.0
Cc1cccc(CSc2ncc(CO)n2C)c1,i
CCOc1ccc(N2CC(C(=O)Nc3ccccc3F)CC2=O)cc1 (configuration not stated),i
Cc1cc(NC(=O)Cn2c(C)nc3ccccc3c2=O)ccc1Br,i
Cc1ccc(S(=O)(=O)N(C)Cc2nc(-c3ccncc3)no2)cc1,1.6
CCOC(=O)c1ccc(NC(=O)CSc2nc(C)cc(=O)[nH]2)cc1,0.4
Cc1ccc(S(=O)(=O)N2CCOCC2)c(C)c1-n1cnnn1,0.3
O=c1oc2ccccc2n1CCc1ccccc1,0.4
CC1CN=C(N(C(=O)Nc2ccccc2)c2ccc(S(=O)(=O)N3CCOCC3)cc2)S1 (configuration not stated),i
# Additional results follow.
SMILES,H5N1 CPE
CCOC(=O)N1CCN(CCC(=O)c2ccc(Cl)cc2)CC1,i
CCc1ccc(N2CC34C=CC(O3)C(C(=O)OC(C)C)C4C2=O)cc1 (configuration not stated),0.7
OCCNc1nc(N2CCN(Cc3ccccc3)CC2)nc2ccccc12,i
CCOC(=O)c1ccc2c(c1)NC(=O)C(N1CCN(c3ccc(OC)cc3)CC1)S2 (configuration not stated),i
COc1cccc(OC)c1C(=O)Nc1cc(C)on1,i
OC1(Cc2ccn[nH]2)CCCCC1,0.9
CN(C)C=Nc1ncc2c([nH]c3ccccc32)c1C#N,8.0
Cc1cccc(OC(=O)c2ccc3nccnc3c2)c1,i
O=C(c1cn(-c2ccccc2)nc1-c1cccs1)N1CCN(c2ccccc2)CC1,0.1
CC1CCCC(C)N1CC(O)COCC1COc2ccccc2O1 (configuration not stated),i
Oc1ccc(/C=N/n2c3ccccc3c3ccccc32)cc1,i
O=C(NCc1ccc(F)cc1)c1ccc(CS(=O)(=O)Cc2ccc(F)cc2)o1,0.3
COc1ccc(NS(=O)(=O)c2cccc(-c3nnc4n3CCCCC4)c2)cc1,0.7
CCOc1cc(N2CCOCC2)c(OCC)cc1NC(=O)CCC1CCCC1,0.2
CCOc1ccccc1N(CC(=O)Nc1ccccc1C(=O)OC)S(C)(=O)=O,i
COc1ccc(S(=O)(=O)N(C)CC(=O)Nc2ccccc2C(F)(F)F)cc1,i
COC(=O)C1=C(C)N(CCc2ccc(OC)c(OC)c2)C(=O)/C1=C\N(C)C,0.2
Cn1c(CN2CCCCC2)nc2cc(NC(=O)c3ccc(F)cc3)ccc21,i
CCOC(=O)c1ccc(Nc2nc(C)cc(=O)[nH]2)cc1,i
CCc1nn(-c2cc(Cl)ccc2OC)c2c1C(=O)CCC2,i
CCOC(=O)N1CCC(NC(=O)CCC(=O)c2ccccc2)CC1,i
CC(C)CC(=O)c1c[nH]c(C(=O)NCCCn2ccnc2)c1,i
c1ccc(-c2nnc3ccc(N4CCC5(CC4)OCCO5)nn23)cc1,5.9
Cn1[nH]c(=O)c2ccccc2c1=O,i
COc1ccc(OCC(=O)Nc2ccccc2C(=O)N2CCCC2)cc1,i

# Already shown: an excerpt of the list.
SMILES,H5N1 CPE
CCOC(=O)N1CCN(CCC(=O)c2ccc(Cl)cc2)CC1,i
CCc1ccc(N2CC34C=CC(O3)C(C(=O)OC(C)C)C4C2=O)cc1 (configuration not stated),0.7
OCCNc1nc(N2CCN(Cc3ccccc3)CC2)nc2ccccc12,i
CCOC(=O)c1ccc2c(c1)NC(=O)C(N1CCN(c3ccc(OC)cc3)CC1)S2 (configuration not stated),i
COc1cccc(OC)c1C(=O)Nc1cc(C)on1,i
OC1(Cc2ccn[nH]2)CCCCC1,0.9
CN(C)C=Nc1ncc2c([nH]c3ccccc32)c1C#N,8.0
Cc1cccc(OC(=O)c2ccc3nccnc3c2)c1,i
O=C(c1cn(-c2ccccc2)nc1-c1cccs1)N1CCN(c2ccccc2)CC1,0.1
CC1CCCC(C)N1CC(O)COCC1COc2ccccc2O1 (configuration not stated),i
Oc1ccc(/C=N/n2c3ccccc3c3ccccc32)cc1,i
O=C(NCc1ccc(F)cc1)c1ccc(CS(=O)(=O)Cc2ccc(F)cc2)o1,0.3
COc1ccc(NS(=O)(=O)c2cccc(-c3nnc4n3CCCCC4)c2)cc1,0.7
CCOc1cc(N2CCOCC2)c(OCC)cc1NC(=O)CCC1CCCC1,0.2
CCOc1ccccc1N(CC(=O)Nc1ccccc1C(=O)OC)S(C)(=O)=O,i
COc1ccc(S(=O)(=O)N(C)CC(=O)Nc2ccccc2C(F)(F)F)cc1,i
COC(=O)C1=C(C)N(CCc2ccc(OC)c(OC)c2)C(=O)/C1=C\N(C)C,0.2
Cn1c(CN2CCCCC2)nc2cc(NC(=O)c3ccc(F)cc3)ccc21,i
CCOC(=O)c1ccc(Nc2nc(C)cc(=O)[nH]2)cc1,i

# Other structures follow.
SMILES,H5N1 CPE
O=C1CC(c2ccccc2)N1c1ccccc1 (configuration not stated),i
COc1ccc(C(=O)CN2C(=O)NC(C)(c3ccccc3)C2=O)cc1OC (configuration not stated),i
Cc1c(C(=O)OCC2CCCO2)[nH]c2c1C(=O)CC(c1ccc(N(C)C)cc1)C2 (configuration not stated),1.3
Nn1c(SCC(=O)Nc2ccc(F)cc2F)nnc1-c1cccnc1,i
O=C(NC1CCCC1)C1CCCN1S(=O)(=O)c1cccc2cccnc12 (configuration not stated),1.4
Nc1c(C(=O)OCC2CCCO2)c2nc3ccccc3nc2n1C1CCCCC1 (configuration not stated),i
CC(=O)N(Cc1ccccc1)c1ncc2c(n1)c(=O)c(C#N)c1ccccn12,1.7
CC(=O)Nc1ccc(S(=O)(=O)Oc2ccc(/C=N/NC(=O)c3ccc(Cl)cc3)cc2)cc1,1.2
CC(C)(C)NC(=O)CN(C(=O)C1CSC(=O)C1)c1ccc2c(c1)OCCO2 (configuration not stated),i
O=C(Nc1cc(Cl)ccc1N1CCOCC1)c1cnccn1,2.6
CC(C)(C)n1nnnc1C(c1ccc(F)cc1)N(Cc1ccc(F)cc1)Cc1ccco1 (configuration not stated),7.1
COCCN(CC(=O)Nc1ccccc1)S(=O)(=O)c1ccc(S(=O)(=O)N2CCCC2)cc1,0.8
O=C(O)CCc1c(C(=O)O)[nH]c2ccccc12,1.2
COc1cccc(CN2CCN(Cc3cc(OC)c(OC)cc3[N+](=O)[O-])CC2)c1,i
c1ccc(-c2nnnn2CCOCCn2nnnc2-c2ccccc2)cc1,0.8
Cc1nc(N2CCc3ccccc3C2)[nH]c(=O)c1CCC(C)C,i
CCOC(=O)C1=C(C)NC(=O)NC1c1ccc(OCCO)c(OC)c1 (configuration not stated),0.8
COC(=O)c1ccc(NC(=O)NS(=O)(=O)c2ccc(C)cc2)cc1,i
COc1ccc(C(=O)c2cnc(/N=C/N(C)C)s2)cc1,0.8
CC(C(=O)OCc1nnc(-c2ccccc2)o1)N1C(=O)c2ccccc2C1=O (configuration not stated),i
CCCCNCc1cc(OCC)c(OCC(N)=O)cc1Br,1.3
CCOc1ccccc1-n1c(COc2ccc(C)cc2)nnc1SCC(N)=O,1.8
COc1ccc(NC2=NCCC2)cc1,i
Cn1nnnc1SCC(=O)c1c(N)n(C)c(=O)n(C)c1=O,i
OCc1n[nH]c(CO)n1,i
# Next structures
SMILES,H5N1 CPE
O=C(Nc1cc2nn(-c3ccccc3)nc2cc1Cl)c1ccco1,i
COC(=O)Nc1nnc(Cc2ccc(OC)cc2)s1,i
CC(=O)C1C2c3ccccc3OC1(C)N=c1s/c(=C/c3cnn(C)c3)c(=O)n12 (configuration not stated),i
Cc1cccc(N(CC(=O)NC2CCCC2)C(=O)c2cc3cc4cccc(C)c4nc3s2)c1C,0.5
CC(=O)Nc1c(NC(C)C)c2ccccc2oc1=O,i
O=C(NCc1ccc(N2CCCC2=O)cc1)c1cn(CCc2ccccc2)nn1,i
COc1ccc(C2/C(=C(\O)c3cc(C)ccc3C)C(=O)C(=O)N2CCN(C)C)cc1OC (configuration not stated),i
CN(CCCNC(=O)CN1C(=O)CC(C)(C)S(=O)(=O)c2ccccc21)C1CCCCC1,0.9
Cn1ccnc1SCC(=O)Nc1ccc2nc(SCC(=O)NC3CC3)sc2c1,0.3
